ugtP null kill – compounds lethal to S. aureus RN4220 ugtP deletion mutant. OD600 growth, 16 h; some inactives read as strong as hits. growth inhibition, % (no concentration beside the values). 330,000 tested, 0.54% active. AID 1259309;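 active = z-score under -3 and OD600 up to 0.15 on both plates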;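 also: plate controls were untreated wells for no effect and antibiotic for full effect; wells of about 80 µL received 100 nL stock; the first replicate is given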
PrP UTR inh – suppresses PrP 5' UTR mRNA reporter expression | cell-based PrP 5' UTR mRNA reporter, plate reader | inhibition, % (concentration not given with the values) | 340,000 tested, 0.35% active;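 active = every replicate at 50% or more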;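 also: 0 = median of the neutral control wells; tested in H4 reporter cells; numbers are from one replicate; inactives centre near -14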
RN4220 kill – kills Staphylococcus aureus RN4220. S. aureus RN4220 growth, OD600, 16 h. inhibition, % (no concentration beside the values). 330,000 tested, 0.33% active. AID 1259311;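 active = z-score of -3 or lower and OD600 up to 0.18 on both plates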;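 also: plate controls were untreated cells for no effect and reference antibiotic for full effect; stock transfer was 100 nL into about 80 µL; one replicate is shown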
Mtb hypoxia inh – Mtb hypoxia fluorescent reporter inhibition; fluorescence inhibition, % (no concentration beside the values); M. tuberculosis hypoxia-regulated fluorescent reporter, fluorescence; AID 1159583; 300,000 tested, 0.1% active;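 active = 35 to 45% if threefold the growth effect, above 45% if 1.5-fold the growth effect; inactive = the rest, general growth blockers included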;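 also: wells of about 50 µL received 100 nL stock; 0% = vehicle wells and 100% = reference inhibitor wells; whole bacteria with a GFP reporter of the hypoxia response; strong numbers were not always called active; many hits fall short of the cut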
Autofluor counter – compound fluorescence in toxin protease inhibitor counterscreen; 360,000 tested, 3.1% active; compound autofluorescence counterscreen, microsphere flow cytometry; active compounds read high; fluorescence intensity (no concentration beside the values);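 active = at least 3 SD above the mean of all compounds, about 16000 in these data; inconclusive = too few beads counted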;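 also: 100 nL of 1 mM stock went into each well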
BJeLR lethal – kills HRASV12-expressing BJeLR cells | 300,000 tested, 0.17% active | inhibition, % (concentration not given with the values) | BJeLR (HRASV12) viability, CellTiter-Glo ATP luminescence, 48 h; reference of the scale not given here;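 active = replicate mean above 50%; inconclusive = above 50% but judged a plate artefact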;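 also: 50 nL library stock added to about 25 µL; numbers are from one replicate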
Mtb hypoxia inh growth – recorded beside Mtb hypoxia inh, whose call it bears; growth inhibition, %; measured here: M. tuberculosis growth (absorbance);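 0% = vehicle and 100% = reference antibiotic; read after six days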
* marks the source's active call; other numbers are inactive results; ? = inconclusive; . = not tested or not shown.

SMILES	ugtP null kill	PrP UTR inh	RN4220 kill	Mtb hypoxia inh	Mtb hypoxia inh growth	Autofluor counter	BJeLR lethal
Cc1ccc(S(=O)(=O)N2CCN=C2c2ccccc2)cc1C	2	-24	6.8	.	.	6339	.
Cn1c(=O)c2nc(-c3ccc(Cl)cc3Cl)oc2c2ccccc21	-10	-29	11	-2	3	5069	4
CC1(C)Cc2c(sc(NC(=O)c3ccccc3)c2C(=O)O)CO1	3	-30	-1.4	10	1	4185	10
COc1ccccc1-n1c(SCC(=O)O)nc2c(sc(=S)n2-c2ccccc2C)c1=O	9	-16	3.3	0	2	3028	1
CCOc1cc2[nH]c(=O)n(CCCC(=O)NCc3ccco3)c(=O)c2cc1OCC	-5	-16	7.4	10	8	4274	-6
CCOc1cc(NC(=O)c2ccccn2)c(OCC)cc1NC(=O)c1cccc(C)c1	15	-12	9.3	-6	-4	2007	1
S=c1[nH]nc(-c2ccc(Cl)cc2)n1CC1CCCO1 (stereo not given)	-2	12	-2.1	-5	10	10805	-17
Cc1ccccc1C1C(C#N)=C2N=C(N)c3ccccc3N2C2=C1C(=O)CCC2 (stereo not given)	3	-11	5.6	3	0	6090	3
CC1=CC(C)(C)N(C(=O)CSc2ncn[nH]2)c2ccc(C)cc21	-1	-25	7.2	-4	10	7207	-4
CNC(=S)N/N=C/c1c(C)nn(-c2ccccc2)c1Cl	.	-21	.	.	.	11557	5
CC(=O)OC(C(=O)NC1CCCCC1)c1ccc(C#N)cc1 (stereo not given)	9	-26	0.8	.	.	3518	4
CCc1cccc(NC(=O)CN(C)S(=O)(=O)c2cccc3cccnc23)c1	13	-11	1.0	-6	-1	3123	3
CCN1CCN(c2cc(N3CCCC3)c(F)cc2[N+](=O)[O-])CC1	2	-12	3.6	12	4	10198	1
CCOC(=O)c1[nH]c(=S)n(Cc2ccccc2)c1C(=O)OCC	-8	8	-0.2	2	-6	2878	.
CCCn1nnnc1SCC(=O)N1CCCC1	8	-10	2.7	8	3	3819	7
CCOC(=O)c1cc2c(ccn2C)n1CC(=O)N(Cc1ccccc1)c1ccc(F)cc1	-4	-19	3.4	5	3	7324	7
COCCn1c(SC)nnc1-c1c[nH]c2ccccc12	-6	-14	-2.3	-5	2	5250	-2
COc1ccc(/C=N/NC(=O)CNC(=O)/C=C/c2ccccc2OC)cc1	.	-32	.	.	.	3649	2
O=C(Nc1cccc(C(=O)O)c1)/C(=C\C=C\c1ccccc1)NC(=O)c1ccccc1	3	-2	4.1	3	3	4449	1
CCn1c(SCC(=O)NCc2ccc3c(c2)OCO3)nnc1-c1ccco1	14	10	3.0	7	3	3240	-4
N=c1n(CCN2CCCC2)c2ccccc2n1CC(O)c1ccco1 (stereo not given)	2	-21	4.3	-2	6	21466*	5
COc1ccc(-n2c(C)cc(C(=O)CN3C(=O)C(=O)N(Cc4ccccc4)C3=O)c2C)cc1	18	-24	1.9	2	3	4428	3
N#Cc1cnn2c(C(F)(F)F)c3c(nc12)CCCC3	1	-3	2.9	10	4	3270	1
O=S(=O)(c1ccc(Cl)cc1)N1CCCC1c1cccnc1 (stereo not given)	3	-25	1.6	-3	6	4817	-2
COC(=O)C1=C(C)N(c2ccc(C)cc2)/C(=C/c2cccs2)C1=O	-8	-15	11	3	12	4444	-11
CN(Cc1ccccc1)C(=O)COC(=O)c1ccc[nH]c1=O	5	-15	1.4	2	1	2894	.
C=CCOC(=O)C1=C[C@H](c2coc3ccccc3c2=O)[C@@H](CCCO)[C@H](OCC)O1	.	-7	.	.	.	3534	9
Cc1cc(C)nc(/N=C(\N)Nc2ccc([N+](=O)[O-])cc2)n1	.	-30	.	.	.	2155	14
O=C(CCN1C(=O)[C@@H]2Cc3ccccc3CN2C1=O)NCc1ccccc1Cl	-1	-15	0.2	0	-4	5256	2
CC(=O)Nc1ccc(S(=O)(=O)NCCC(=O)Nc2ccc(C)cn2)cc1	4	-21	1.2	10	-4	5540	6
COc1ccc(NC(=O)C(c2ccccc2)N(C)C(=O)c2cnccn2)cc1 (stereo not given)	8	-12	-0.3	.	.	2281	-2
NC(=O)CC(NC(=O)Cc1cccc2ccccc12)c1ccc(NCc2cc(F)ccc2F)c([N+](=O)[O-])c1 (stereo not given)	3	-23	6.8	11	5	4105	-23
c1ccc2[nH]c(CSc3nnc(-c4ccncc4)o3)nc2c1	-1	-14	3.3	.	.	2945	4
CCN1CCN(c2nc3c(C)cccn3c(=O)c2/C=C(\C#N)S(=O)(=O)c2ccccc2)CC1	0	-6	-0.1	.	.	3217	-8
O=C(O)c1cccc(NC(=O)C23CC4CC(C2)CC(n2cnc(Cl)n2)(C4)C3)c1	-3	-14	-6.9	2	9	2775	-3
Cn1c(=O)c2c(nc(-c3ccc(N(CCCl)CCCl)cc3)n2C)n(C)c1=O	-3	-10	-2.7	-15	3	3771	.
COc1ccc(CCC(=O)OCC(=O)Nc2c(C)nn(-c3ccccc3)c2C)cc1	4	-19	0.3	-1	5	?	-16
CC(C)CNS(=O)(=O)c1ccc(NC(=O)Cn2nc(-c3ccc(F)cc3)ccc2=O)cc1	.	-13	.	.	.	10337	1
CC(=NNC(=O)c1ccccc1OCCOc1ccccc1)c1ccccc1F	-19	.	-0.3	6	-1	.	.
O=C(Cn1c2ccccc2c2nc3n(c(=O)c21)CCCS3)Nc1ccccc1	2	-26	-0.8	0	11	5529	-3
C/C(CC(=O)Nc1ccc2c(c1)OCCO2)=N\NC(=O)c1ccc([N+](=O)[O-])cc1Cl	.	-10	.	.	.	3300	2
Cc1cccc(C(=O)NNC(=O)c2cccc([N+](=O)[O-])c2)c1	17	-24	7.2	-12	-6	4112	4
CN(C)c1ccc(/C=N/NC(N)=S)cc1[N+](=O)[O-]	.	-1	.	.	.	4500	-9
Cc1ccc(-c2ccc(=O)n(CC(=O)NCCN(CC(C)C)CC(C)C)n2)cc1	3	5	-1.5	3	-3	2778	1
CC1(C)CC(=O)C2=C(C1)Nc1ccccc1NC2c1nc2ccccc2[nH]1 (stereo not given)	0	-20	-1.3	-3	2	5287	6
O=C(COC(=O)CNC(=O)c1ccc(Br)o1)Nc1ccc2c(c1)OCCO2	-3	-19	1.5	0	4	3717	-6
O=C1N/C(=C\c2ccsc2)C(=O)N1Cc1ccc(F)cc1	-3	-21	3.0	-8	6	7360	5
CCc1cc2c(SCC(=O)NC(=O)c3cccn3C)ncnc2s1	5	4	10	-8	0	4285	-4
Cc1ccc(-n2nc(C)cc2N)c(C)c1	0	-20	-1.4	5	-10	3175	1
Cc1nc([N+](=O)[O-])c(Br)n1CC(=O)c1ccccc1	-3	-2	-0.3	.	.	2933	0
COc1ccc(NC(=O)CN(C)C(=O)c2c(C)nn(Cc3ccccc3)c2C)cc1	4	-18	3.6	9	3	?	5
CCOc1ccc(CNC(=O)C(CC)n2nc(C)n3c(cc4occc43)c2=O)cc1OC (stereo not given)	3	-5	3.6	2	10	2742	-2
COc1cccc(CNC(=O)Cc2ccc(-n3c(=O)[nH]c4ccccc4c3=O)cc2)c1	1	-29	1.7	-3	1	11091	-9
CCC(=O)Nc1cccc(C2=NOC3(C2)CC(C(N)=O)N(C(=O)CC)C3)c1 (stereo not given)	1	.	9.9	0	-2	.	.
O=C(Nc1cccc(NC(=O)c2ccccc2)n1)c1ccccc1	31	-7	96*	7	6	4133	1
Cc1cc(C)c2c(n1)nn1c(NCCCN3CCOCC3)cc(C)nc21	12	-23	3.8	1	0	5816	.
CC1CN(C(C)CO)C(=O)c2cccc(NS(=O)(=O)c3ccccc3)c2OC1CN(C)Cc1ccncc1 (stereo not given)	4	.	3.1	11	6	.	.
CCN(C(=O)CCNC(=O)Cn1cnc2ccccc2c1=O)c1cccc(Cl)c1	2	-45	0.4	16	2	5876	-7
CCC(=O)N(CC)c1nc(-c2cc(OC)ccc2OC)cs1	-7	-9	6.1	12	23	5636	3
Cc1sc(N/N=C/c2cccs2)nc1-c1ccccc1	.	-50	.	.	.	2999	2

Five entries from above, with values under each structure.
Screens in order: ugtP null kill, PrP UTR inh, RN4220 kill, Mtb hypoxia inh, Mtb hypoxia inh growth, Autofluor counter, BJeLR lethal
CCOc1ccc(CNC(=O)C(CC)n2nc(C)n3c(cc4occc43)c2=O)cc1OC (stereo not given)
  3, -5, 3.6, 2, 10, 2742, -2
CC1CN(C(C)CO)C(=O)c2cccc(NS(=O)(=O)c3ccccc3)c2OC1CN(C)Cc1ccncc1 (stereo not given)
  4, ., 3.1, 11, 6, ., .
Cc1cc(C)c2c(n1)nn1c(NCCCN3CCOCC3)cc(C)nc21
  12, -23, 3.8, 1, 0, 5816, .
CCC(=O)N(CC)c1nc(-c2cc(OC)ccc2OC)cs1
  -7, -9, 6.1, 12, 23, 5636, 3
CCN(C(=O)CCNC(=O)Cn1cnc2ccccc2c1=O)c1cccc(Cl)c1
  2, -45, 0.4, 16, 2, 5876, -7

Later entries:
SMILES	ugtP null kill	PrP UTR inh	RN4220 kill	Mtb hypoxia inh	Mtb hypoxia inh growth	Autofluor counter	BJeLR lethal
Fc1ccc(CNCCc2ccccc2F)cc1	0	-1	2.7	-3	-6	2418	2
Cc1ccc(-c2cc(=O)c3ccc(F)cc3[nH]2)cc1	3	-46	3.5	20	5	3042	15
COc1ccc(OC)c(NC(=O)CSc2nnc(C)n2Cc2ccccc2)c1	-2	-2	1.9	10	7	7209	4
Cc1cc(C(=O)NC(C)C)on1	10	-13	4.4	8	7	10770	-3
O=C(N=Nc1c(O)n(C2OC(=O)c3ccccc32)c2ccccc12)c1ccc(O)cc1 (stereo not given)	-7	-8	-6.5	2	6	3270	-13
CC(=O)Nc1cccc(C(=O)OCc2ccccc2)c1	-1	-17	3.5	2	5	9824	-13
O=C1C2C3c4ccccc4C(c4ccccc43)C2C(=O)N1Cc1ccccn1 (stereo not given)	4	-12	9.8	11	18	4119	12
COc1cccc(C(=O)NCCS(=O)(=O)N(C)Cc2ccccc2)c1	.	-4	.	.	.	5233	4
CC(C)(C)NC(=S)NCc1ccncc1	5	-10	4.5	11	12	2367	-2
COc1ccccc1NC(=S)NC(NC(=O)C(C)C)C(Cl)(Cl)Cl (stereo not given)	6	-29	4.4	3	0	2545	-2
COc1ccc(Oc2c(Cl)cnn(-c3ccc(C)cc3)c2=O)cc1	16	1	-4.6	.	.	2616	1
O=C(Cn1cc(C(F)(F)F)cc(Cl)c1=O)Nc1cc(Cl)cc(Cl)c1	-12	-3	6.3	11	-3	3474	1
Cc1cnc(C)c(N2CCC(C(=O)NCc3ccco3)CC2)n1	0	-8	2.5	.	.	3068	-8
Cc1ccc(NC(N)=Nc2nc(CSc3ccccn3)cc(=O)[nH]2)c(C)c1	8	.	6.0	0	-2	.	.
Cc1nc2c(n1O)CCC/C2=N\O	.	-16	.	.	.	3266	-10
CCOC(=O)CCCNC(=O)COC(=O)c1cccc(C)c1O	-4	-16	-7.6	.	.	4955	-4
C=CCn1c(SCC(=O)N2CCOCC2)nc2scc(-c3ccco3)c2c1=O	-4	-13	-0.2	-4	-1	15570	2

For convenience, part of the list above:
SMILES	ugtP null kill	PrP UTR inh	RN4220 kill	Mtb hypoxia inh	Mtb hypoxia inh growth	Autofluor counter	BJeLR lethal
Cc1ccc(S(=O)(=O)N2CCN=C2c2ccccc2)cc1C	2	-24	6.8	.	.	6339	.
Cn1c(=O)c2nc(-c3ccc(Cl)cc3Cl)oc2c2ccccc21	-10	-29	11	-2	3	5069	4

Compound profiles, from the list above. Values in the order: ugtP null kill | PrP UTR inh | RN4220 kill | Mtb hypoxia inh | Mtb hypoxia inh growth | Autofluor counter | BJeLR lethal
Listed for Cc1ccc(NC(N)=Nc2nc(CSc3ccccn3)cc(=O)[nH]2)c(C)c1 : 8 | . | 6.0 | 0 | -2 | . | .
Listed for Cc1nc2c(n1O)CCC/C2=N\O : . | -16 | . | . | . | 3266 | -10
Listed for CCOC(=O)CCCNC(=O)COC(=O)c1cccc(C)c1O : -4 | -16 | -7.6 | . | . | 4955 | -4

Source: PubChem BioAssay (several laboratories)
